Assay outcomes from PubChem BioAssay.
T cruzi inh = T. cruzi replication inhibition; hit rate 1.4% among 300,000; inhibition, % (concentration not given with the values); T. cruzi beta-gal in NIH3T3, luminescence, 90 h; AID 1885;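 active = mean inhibition across valid replicates above about 55%, limit read from the data; inconclusive = mean below that limit but half or more replicates reach it; inactive = mean below it, under half of replicates reach it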;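 also: signal also drops with host cell toxicity which is not excluded here; 0% = plate median of DMSO wells and 100% = zero luminescence signal; higher percent means less beta-gal luminescence so fewer parasites; stock transfer was 50 nL into about 50 µL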
Calb FLC = affects C. albicans growth with fluconazole; growth inhibition, % (concentration not given with the values); hit rate 0.57% among 300,000; C. albicans CaCi-2 (fluconazole-resistant clinical isolate) + fluconazole, Alamar Blue growth, 48 h; AID 1979;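 active = most replicates above 75%; inconclusive = exactly half above 75%; inactive = most below 75%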;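 also: all wells also contain fluconazole at 8 µg/ml as a sub-toxic cotreatment; 0% = median of DMSO wells and 100% = median of geldanamycin control wells; wells of about 8 µL received 7.5 nL stock; the first replicate is given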
Vif A3G = inhibitors of Vif binding to APOBEC3G peptide, primary screen, biochemical, TR-FRET, GST-Vif 1-94, biotin-A3G peptide, dose response retest (AID 1117319) | hit rate 0.57% among 260,000 | TR-FRET GST-Vif / biotin-A3G peptide binding; higher % means a stronger effect; test concentration not given here; strong numbers were not always called active | one-dose inhibition, %; IC50 in µM for titrated hits;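 active = above the screen mean plus three standard deviations and confirmed in dose response; inconclusive = results disagree or hit not tested in dose response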;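 also: Vif residues 1-94 fused to GST binding biotinylated APOBEC3G peptide 110-148; 0% = full assay without inhibitor and 100% = GST in place of GST-Vif; retest series ran down from 100 µM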
A1 inh = inhibitors of the anti-apoptotic protein A1, read as caspase activation; MEF A1-2A-BIM cells, Caspase-Glo 3/7 luminescence, 3 h; percent of clofoctol response, vehicle zero; caspase activation, % (test concentration not listed); hit rate 0.066% among 330,000;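 active = over half of replicate activation scores above 10%, or exactly half above 10 with the replicate mean above 10; inconclusive = replicate mean below 10 yet half the replicates above 10; inactive = over half of replicates below 10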;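 also: wells of about 30 µL received 50 nL stock; many hits fall short of the cut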
AF4-AF9 inh = blocks AF4 peptide binding to human AF9; P42568; AlphaScreen, biotin-AF4 peptide binding to FLAG-AF9; inhibition, % at 10 µM; hit rate 0.47% among 350,000; AID 651704;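 active = every replicate reaching a set inhibition limit, whatever the replicate mean, cut at about 25% in these data; inconclusive = mean inhibition reaches that limit but some replicates miss it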;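 also: 0% = plate neutral control median and 100% = total signal loss; the record names both 10 and 1 µM as test concentration; the first replicate is given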
Target sequence (P42568 whole entry, looked up): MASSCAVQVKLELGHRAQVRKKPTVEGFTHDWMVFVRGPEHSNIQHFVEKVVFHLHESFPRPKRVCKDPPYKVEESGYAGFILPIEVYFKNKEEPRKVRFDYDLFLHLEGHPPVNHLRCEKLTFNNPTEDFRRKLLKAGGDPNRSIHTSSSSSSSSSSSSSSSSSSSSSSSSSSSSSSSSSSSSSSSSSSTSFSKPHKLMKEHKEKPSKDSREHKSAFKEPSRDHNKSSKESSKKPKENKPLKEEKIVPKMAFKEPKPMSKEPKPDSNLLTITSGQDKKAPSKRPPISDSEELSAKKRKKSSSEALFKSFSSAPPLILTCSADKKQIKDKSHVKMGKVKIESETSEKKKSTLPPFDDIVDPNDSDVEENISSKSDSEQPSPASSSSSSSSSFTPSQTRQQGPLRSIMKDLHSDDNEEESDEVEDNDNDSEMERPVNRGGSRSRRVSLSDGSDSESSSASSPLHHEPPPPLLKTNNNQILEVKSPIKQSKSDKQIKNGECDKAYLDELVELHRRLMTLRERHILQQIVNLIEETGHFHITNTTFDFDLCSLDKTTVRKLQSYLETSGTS
RanGTP-Impb inh = inhibitors of RanGTP-importin-beta interaction, primary screen, biochemical, FRET, CFP-Ran, YFP-importin-beta, homogeneous; inhibition, % (test concentration not listed); cell-free CFP-Ran/YFP-importin-beta FRET ratio; hit rate 1.1% among 300,000;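 active = most replicates above 15%; inconclusive = exactly half above 15%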;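 also: 0% = DMSO wells and 100% = Ran loaded with GDP instead of GTP; wells of about 40 µL received 100 nL stock; the first replicate is given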
Beta cell apopt = blocks beta cell apoptosis. INS-1E cytokine-induced death, ATP luminescence, 48 h; percent of positive-control rescue, neutral wells zero. protection from apoptosis, % (concentration not given with the values). hit rate 0.8% among 300,000;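 active = all replicates at 75% or more, or half of them and the mean; inconclusive = half reach 75% but not the mean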;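 also: 0% = cytokine-treated negative control wells and 100% = positive control rescue; higher means more ATP so stronger rescue from cytokine killing; wells of about 40 µL received 100 nL stock; the first replicate is given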
Ecoli rRNA inh = selective bacterial rRNA inhibition in E. coli; GFP signal change (wild-type ribosome), % (concentration not given with the values); hit rate 1.6% among 350,000; E. coli WT GFP vs humanized-ribosome RFP mutants, fluorescence, 24 h; hits give low values; DMSO median 0, no signal -100;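 active = significant combined selectivity score with lowered wild-type GFP, culture density cut under 30%, mutant RFP and density less affected; inactive = any of these conditions unmet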; also: one replicate is shown; some compounds called inactive have numbers as strong as hits
Ecoli rRNA inh OD600 = also measured in Ecoli rRNA inh; calls as there; OD600 change, %; measured here: OD600 growth;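 optical density of the mix in the first replicate; 0 = DMSO median and -100 = no signal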
Ecoli rRNA inh RFP = also measured in Ecoli rRNA inh; calls as there; RFP signal change, %; measured here: RFP humanized mutant strains;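 first replicate; 0 = DMSO median and -100 = no signal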
* marks the source's active call; other numbers are inactive results; ? = inconclusive; / = no result given; & = joins results of further samples. Not all compounds are listed. The share of hits here may be higher or lower than overall.

SMILES | T cruzi inh | Calb FLC | Vif A3G | A1 inh | AF4-AF9 inh | RanGTP-Impb inh | Beta cell apopt | Ecoli rRNA inh | Ecoli rRNA inh OD600 | Ecoli rRNA inh RFP
COCCNC(=O)c1sc2ncn(CC(=O)Nc3ccc(C)c(Cl)c3)c(=O)c2c1C | -2.8 | 6.3 | -3.6% | 0.4 | -10.8 | -2.8 | -5.7 | -1.1 | 0.5 | -1.1
O=C(NCCCc1ccncc1)C1CCC(=O)N(CCc2cccc(F)c2)C1 (stereo unspecified) | 9.4 | 5.3 | / | -0.1 | 0.6 | 1.1 | -4.7 | 4.0 | 9.6 | -0.8
CCOc1ccccc1NC(=O)COn1nnc2ccccc21 | 7.9 | 2.1 | 7.6% | -0.2 | / | 0.5 | -2.0 | / | / | /
Cc1ccc(N2C(=O)N(CC(=O)NCc3ccccc3Cl)C(=O)C2C)cc1 (stereo unspecified) | -7.9 | -3.8 | -0.1% | 0.1 | -1.0 | -0.1 | 6.8 | -11.5 | -12.9 | 0.8
CC(C)(C)NC(=O)c1cc(-c2ccc3c(c2)OCO3)nc2ccccc12 | 3.8 | 1.0 | 3.8% | -0.9 | -1.4 | -1.2 | -12.5 | -12.3 | -10.1 | 1.0
CCn1c(=O)c(C(=O)NC(C)c2ccccc2)c(O)c2ccccc21 (stereo unspecified) | 11.7 | -5.0 | / | 0.5 | -4.3 | 3.8 | -6.8 | 7.8 | 11.5 | -1.8
COCCOC(=O)c1[nH]c2c(c1C)C(=O)CC(c1cc(OC)c(OC)c(OC)c1)C2 (stereo unspecified) | 3.3 | 11.1 | / | 0.0 | -1.6 | 4.2 | 4.6 | -2.1 | 2.0 | -3.0
C[C@H](CO)N1C[C@H](C)[C@@H](CN(C)C(=O)NC2CCCCC2)Oc2ccc(NC(=O)Nc3ccc(C(F)(F)F)cc3)cc2C1=O | / | / | / | -0.2 | 3.9&3.8 | / | 6.4 | -1.4&6.1 | -11.1&-11.7 | -0.8&2.1
C[C@H](NC(=O)c1nc[nH]c1C(=O)N[C@@H](C)C(=O)OC(C)(C)C)C(=O)OC(C)(C)C | -14.0 | -2.5 | 9.5% | 0.9 | 2.3 | -0.9 | -7.2 | 7.0 | 0.5 | -13.4
O=C(c1cc(-c2ccncc2)nc2ccccc12)N1CCN(c2ncccn2)CC1 | / | / | -2.8% | 0.3 | -7.8 | / | -4.4 | 0.2 | -2.8 | -9.4
CN(CC(=O)N1CCN(c2ccccn2)CC1)S(=O)(=O)c1ccc(Br)cc1 | 8.9 | -5.6 | 15.3% | 0.8 | / | 3.1 | -3.6 | / | / | /
CC(NCc1ccc(N(C)C)cc1)C1CC2CCC1C2 (stereo unspecified) | 11.5 | 22.3 | 1.7% | 0.0 | / | -2.8 | -0.2 | / | / | /
CCCC1(c2ccccc2)NC(=O)N(CC(=O)Nc2cc(C)on2)C1=O (stereo unspecified) | -9.8 | 6.1 | -6.3% | 1.1 | -0.5 | -6.3 | 0.5 | 12.9 | 4.3 | 1.0
Cc1ccc(C)n1/N=C1/NC(=O)CS1 | -4.7 | 13.7 | 0.9µM* | 2.0 | / | -5.5 | -3.8 | / | / | /
O=C(NCCN1CCOCC1)/C(=C\c1ccc(F)cc1)NC(=O)c1ccccc1 | -16.8 | 4.6 | / | -0.2 | -5.0 | 7.2 | -2.2 | 3.2 | -5.2 | -2.7
Cc1ccc2nc(SCC(=O)Nc3ccc(Cl)cc3)nc(=O)n2c1 | -3.6 | 14.0 | -1.9% | 0.8 | 0.9 | 6.5 | / | 7.0 | 7.3 | 0.3
O=C(O)CSc1nc(SCc2ccccc2Cl)nc2c1CCCC2 | 8.3 | 4.2 | -2.6% | -0.5 | / | 0.4 | -4.8 | / | / | /
CCOC(=O)c1ccccc1NC(=O)COC(=O)CSC(C)C(=O)Nc1cc(C)on1 (stereo unspecified) | -16.4 | -4.0 | / | 0.3 | -1.3 | 0.0 | / | 3.0 | -1.7 | 0.6
O=C(O)CCCCCN1C(=O)C2CCCCC2C1=O (stereo unspecified) | 0.8 | 1.0 | 0.2% | -1.1 | / | 3.6 | 2.5 | / | / | /
COc1ccc(Cl)cc1C(=O)NNC(=O)C1COc2ccccc2O1 (stereo unspecified) | 0.2 | 10.3 | 5.0% | 0.6 | -1.0 | 0.7 | -2.2 | 9.6 | 10.6 | 1.1
C=CCNC(=O)COc1ccc(N(C)S(=O)(=O)c2ccc(NC(C)=O)cc2)cc1 | -12.3 | -9.6 | 4.1% | 0.1 | -4.2 | 1.2 | 0.6 | 8.3 | 4.2 | 1.4
Cc1nn(CC(=O)N(C)C)c(=O)c2ccccc12 | -2.2 | -5.2 | 3.8% | 0.4 | / | 0.2 | -4.1 | 23.5 | 21.1 | 0.5
CC12C(=O)N(c3ccccc3)C(=O)C1C(c1ccccc1)N1CCCN12 (stereo unspecified) | -17.0 | 5.7 | -3.6% | -0.5 | -1.8 | 3.2 | 0.7 | 1.7 | 4.4 | 5.3
COc1ccc(C(=O)Nc2cc(C)nn2-c2nc3ccccc3[nH]2)c(OC)c1 | 61.5* | 1.7 | -5.2% | 0.2 | 1.7 | ? | 10.7 | 5.8 | 6.1 | 5.3
O=C(CCC(=O)N1CCN(S(=O)(=O)c2ccc(Cl)cc2)CC1)Nc1cccc(Br)c1 | 6.6 | 8.1 | -1.6% | -0.2 | 1.5 | 2.8 | -0.6 | -16.8 | -34.8 | -1.9

Sorted by value in Ecoli rRNA inh (highest first): three from the list above.
structure | Ecoli rRNA inh
Cc1nn(CC(=O)N(C)C)c(=O)c2ccccc12 | 23.5
C[C@H](NC(=O)c1nc[nH]c1C(=O)N[C@@H](C)C(=O)OC(C)(C)C)C(=O)OC(C)(C)C | 7.0
O=C(c1cc(-c2ccncc2)nc2ccccc12)N1CCN(c2ncccn2)CC1 | 0.2

(further entries)
SMILES | T cruzi inh | Calb FLC | Vif A3G | A1 inh | AF4-AF9 inh | RanGTP-Impb inh | Beta cell apopt | Ecoli rRNA inh | Ecoli rRNA inh OD600 | Ecoli rRNA inh RFP
Cc1ccc2c(CC(=O)O)coc2c1C | -9.4 | 17.5 | -0.3% | 0.9 | / | 1.1 | / | / | / | /
C=CCn1c(SCc2cc(=O)n3ccsc3n2)nc2scc(C3CC3)c2c1=O | 12.5 | ? | / | -0.4 | / | -0.3 | 5.5 | / | / | /
O=c1[nH]c2ccc(Cl)cc2c(-c2ccccc2)c1N1CCOCC1 | 12.6 | -4.6 | ? | 0.4 | -5.6 | -0.2 | -3.6 | -29.5 | -36.9 | -3.6
COc1cccc(C(=O)NNc2nc(C)cc(C)n2)c1 | 3.3 | 3.2 | 2.3% | 1.0 | / | 2.7 | 0.1 | / | / | /
C#CCOc1ccc(/C=C2/C(=O)N(c3cccc(C(=O)O)c3)N=C2C)cc1OC | -12.6 | 6.7 | / | -0.3 | -6.8 | 0.5 | / | 7.6 | 9.3 | -0.7
Cc1ccc2cc(CN(C(=O)C3CCCO3)C3CCCCC3)c(=O)[nH]c2c1 (stereo unspecified) | 10.4 | -2.8 | 9.0% | 0.7 | / | -3.5 | 0.1 | / | / | /
Cn1c(=O)c(=O)n(C)c2cc(N3CCOCC3)c(NS(=O)(=O)c3ccc(Br)cc3)cc21 | 9.8 | 30.1 | / | 0.0 | 3.9 | 1.1 | -7.1 | 0.6 | 5.6 | 0.0
CCNc1ccc(C(=O)OCC)cc1NC(=O)c1cccc(S(=O)(=O)N(C)c2ccccc2)c1 | 17.0 | 13.9 | 7.1% | 1.0 | 0.8 | ? | -7.3 | -5.0 | -11.6 | 2.8
COc1cc(C2C3=C(CCCC3=O)Nc3[nH]n(-c4ccccc4)c(=O)c32)cc(OC)c1OC (stereo unspecified) | 6.3 | 1.0 | -3.8% | 0.1 | 1.5 | 3.4 | -6.4 | 8.5 | 16.4 | 3.3
CCNC(=O)N(C)C[C@H]1N[C@@](C)(C(=O)OC)[C@H]2C(=O)N(Cc3ccccc3)C(=O)[C@@H]12 | / | / | 6.5% | -0.4 | -0.4 | / | -10.4 | 6.5 | 4.5 | 3.6
N#Cc1ccccc1OCC(=O)OCCCOC(=O)COc1ccccc1C#N | -17.9 | 15.6 | / | -0.1 | -1.7 | 4.2 | -7.4 | 10.3 | 16.3 | 1.2
CCOc1ccc(-c2c(=O)n(O)c3ccccc3[n+]2[O-])cc1 | -16.9 | 8.3 | 30.5% | -0.9 | -6.5 | -14.2 | -3.9 | -20.1* | -4.9* | 1.1*
Cc1cc(C[n+]2ncsc2N)c2ncccc2c1 | 8.5 | -3.9 | -5.1% | -0.2 | 2.3 | 0.4 | -3.8 | 2.9 | 1.7 | 3.6
Cc1ccc(NC(=O)Cn2ncn3c(cc4ccccc43)c2=O)c(C)c1 | 15.4 | -6.2 | -4.3% | 0.4 | 0.6 | 2.8 | -4.5 | -4.1 | 0.7 | 1.3
CN(c1ccc(C(=O)N2CCN(Cc3ccccc3)CC2)cc1)S(=O)(=O)c1ccc(Cl)cc1 | 23.1 | -1.4 | / | 0.0 | -2.2 | 0.9 | 7.5 | -10.3 | -48.5 | -0.5
COc1ccc(OC)c(Nc2nc(N)c([N+](=O)[O-])c(NC3CCCCC3)n2)c1 | 7.5 | -3.5 | -3.8% | 0.3 | 3.1 | -1.5 | 4.4 | 7.2 | 5.2 | 1.4
COC(=O)c1ccc(S(=O)(=O)N2CCCCCC2)n1C | 0.4 | 0.0 | -6.0% | 0.3 | -0.6 | -0.5 | -4.6 | 0.2 | -9.4 | -1.4
Brc1ccc(C2=Nc3cccc4cccc(c34)N2)o1 | -2.9 | -9.2 | ? | 0.5 | 2.0 | 4.0 | -0.5 | / | / | /
CC(C)(C)OC(=O)NCCCCCc1nnc(SCC(=O)Nc2cccc(Cl)c2)o1 | 4.0 | 17.2 | 0.2% | 0.1 | / | 1.3 | -5.6 | / | / | /
Cc1ccc(SCc2cc(=O)[nH]c(/N=C(\N)Nc3cccc4ccccc34)n2)cc1 | -37.9 | 16.9 | / | -0.4 | -1.8 | 4.6 | -4.3 | 13.1 | 2.6 | -2.8
COc1ccc(N=C2SC(C(=O)N3CCN(c4ccccc4)CC3)CC(=O)N2C)cc1 (stereo unspecified) | 25.8 | -4.1 | ? | -0.6 | 9.1 | 3.5 | -2.5 | 0.2 | -28.2 | 1.7
Cc1ccc(OCC(=O)Nc2ccccc2-c2ccccc2)cc1 | -1.4 | ? | 2.9% | 0.4 | / | 2.3 | 6.7 | / | / | /
